Measles inh: inhibitors of measles virus growth in infected cells. AID 745. infected Vero cells, GFP fluorescence, 64 h; stronger effect = lower value. z-score (test concentration not listed). 33,000 tested, 0.1% active;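 active means z-score under -3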;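 further: score is relative to mean and SD of the compound wells of a plate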
Numbers without * were called inactive. Not all compounds are listed, so the mix of outcomes need not match the whole.

compound,Measles inh
COC(=O)C1=C(C(=O)OC)SC(=C2C(=S)C(C)(C)N(C(=O)c3ccc(F)cc3)c3c(OC)cccc32)S1,-0.18
C=C(C)CN1CCN(c2cc(C)c(C#N)c3nc4ccccc4n23)CC1,-0.04
Cc1ccc(N2C(=O)CC(N3CCOCC3)C2=O)cc1 (centres undefined),-0.9
O=C(CCS(=O)(=O)c1ccc(Br)s1)NC1CCCC1,-0.86
CC1=C(C(=O)OCCc2ccccc2)C(c2coc3ccc(C)cc3c2=O)C2=C(CC(c3cccs3)CC2=O)N1 (centres undefined),-0.13
Cc1cc(C(=O)N(C2CCCCC2)C2CCCCC2)no1,0.7
O=C(Nc1ccc([N+](=O)[O-])cc1Br)c1cccc([N+](=O)[O-])c1,0.61
COCCOC(=O)C1=C(C)NC2=C(C(=O)C(C(=O)OC)C(C)C2)C1c1ccc(N(C)C)cc1 (centres undefined),0
CC12CC(NC(=O)N1c1cccc(C(=O)NCc3cccnc3)c1)c1cc(Cl)ccc1O2 (centres undefined),0.61
CCN(CC)c1ccc(N)c(C)c1,-0.14
CCS(=O)(=O)CCSc1nc(C)cc(C)n1,-0.24
Nc1cc(OC(=O)c2ccc(F)cc2)nn1S(=O)(=O)c1ccc(Br)cc1,-1
COc1ccc2cc3cc(C(=O)NCCCN4CCCCCC4)sc3nc2c1,-0.78
O=C1OC(C(=O)Nc2cc(C(F)(F)F)ccc2Cl)Cc2ccccc21 (centres undefined),0.8
Cc1cc(C)n2nc(SCC(=O)Nc3ccc(C)c(Cl)c3)nc2n1,1.3

Reprinted at random: four records from the list, in no set order.
compound,Measles inh
COCCOC(=O)C1=C(C)NC2=C(C(=O)C(C(=O)OC)C(C)C2)C1c1ccc(N(C)C)cc1 (centres undefined),0
CC1=C(C(=O)OCCc2ccccc2)C(c2coc3ccc(C)cc3c2=O)C2=C(CC(c3cccs3)CC2=O)N1 (centres undefined),-0.13
Cc1cc(C)n2nc(SCC(=O)Nc3ccc(C)c(Cl)c3)nc2n1,1.3
C=C(C)CN1CCN(c2cc(C)c(C#N)c3nc4ccccc4n23)CC1,-0.04

Continued.
compound,Measles inh
CS(=O)(=O)c1ccc(Cl)c(S(C)(=O)=O)c1,0.52
O=C(CCCC1=NS(=O)(=O)c2ccccc2N1)Nc1cccc2ccccc12,-0.46
CCOC(=O)C1=C(C)NC(=O)CC1c1cc(OC)c(OC)cc1Br (centres undefined),0.6
COc1ccc(OC)c(C2C(=O)N(C3CCC(C)CC3)CC(=O)N2Cc2ccc(F)cc2)c1 (centres undefined),0.5
CCOC(=O)c1c(-c2ccc(OC)cc2)oc2ccc(OC(=O)c3cccs3)cc12,-0.09
CC(C)OCCCNc1nc(-c2ccc(Cl)cc2)nc2ccccc12,-0.28
CC(=O)N1CC(C)C(=O)Nc2c1cc(Br)cc2[N+](=O)[O-] (centres undefined),0.25
CCc1ccc(CNC(=O)c2ccc(Sc3ccc(Cl)cc3)c(NC(C)=O)c2)cc1,0.78
CCCCn1c(NC(=O)C2CCCCC2)nc2ccccc21,-0.99
Cc1ccc(CNC(=O)c2c[nH]c3ccc(S(=O)(=O)N4CCC(C)CC4)cc3c2=O)cc1,0.46
COc1ccccc1NC(=O)CSc1nnc(C(F)(F)F)o1,-0.78
CCOc1ccc(CNC(=O)c2cc(=O)[nH]c3ccc(Br)cc23)cc1OC,0.3
COc1cc(C(=O)NCc2ccc(F)cc2)cc(OC)c1OC,-0.02
CCCOC(=O)c1ccc(NC(=O)c2ccc(C(C)(C)C)cc2)cc1,-0.67
CCCS(=O)(=O)N1CCC(C(=O)NC2CCCC2)CC1,-0.91
CC(=O)NC(C)c1nc2ccccc2[nH]1 (centres undefined),-0.2
CCCCNC(=O)n1ccc(C(=O)Nc2ccc(C)cc2C)n1,0.66
Cc1c(Cl)cccc1NC(=O)c1ccc(C(C)(C)C)cc1,-1.3
CCc1ccccc1Nc1cc(C(=O)NCC2COc3ccccc3O2)c2ccccc2n1 (centres undefined),0.73
CC(=O)c1ccc(NC(=O)c2ccc(CN(c3ccc(C)c(C)c3)S(C)(=O)=O)cc2)cc1,-0.51
O=C(CC1Sc2ccccc2NC1=O)Nc1ccc(SC(F)(F)F)cc1 (centres undefined),1.1
COc1ccc(C)cc1NC(=O)C1c2cc(OC)c(OC)cc2C(=O)N2CCc3ccccc3C12 (centres undefined),0.58
O=[N+]([O-])c1ccc(N2CCCC2)cc1NC(c1ccccc1)c1ccccc1,0.68
Cc1n[nH]c(C)c1NC(=O)c1cc2c(C)nn(-c3ccccc3)c2s1,1.1
COC(=O)C1=C(C)Nc2ncnn2C1c1cccc(OC)c1 (centres undefined),-0.5
COc1ccc2ccccc2c1-c1csc(NC(=O)c2ccc(S(=O)(=O)N3CCCC3)cc2)n1,0.62
CCOc1ccc(Nc2ncnc3[nH]ncc23)cc1,0.8
CCC1=NN(C(=O)c2ccco2)C(O)(C(F)(F)F)C1 (centres undefined),1.1
CCOc1ccccc1NC(=O)C(=O)CC(=O)c1cccc(OC)c1,-0.78
Cc1ccc(S(=O)(=O)N2CCc3ccccc3C2CN2C(=O)c3ccccc3C2=O)cc1[N+](=O)[O-] (centres undefined),0.61
COc1cccc(NC(=O)CSc2nc3c(c(=O)n2C)SC(C)C3)c1 (centres undefined),-0.21
COc1ccc([N+](=O)[O-])cc1NC(=O)c1nn(-c2ccccc2OC)c(=O)c2ccccc12,-0.83
CCN(CC)C(=O)CSc1nc2c(sc(=S)n2-c2cccc(OC)c2)c(=O)n1-c1ccccc1,-0.57
OCCCc1nc2cc3ccccc3cc2[nH]1,0.35
CC(=O)Oc1cc2oc3cc(C)ccc3[nH]c2c2c(=O)c3ccccc3c(=O)c12,0.66
CC(C)CN(CC(C)C)S(=O)(=O)c1ccc(C(=O)Nc2nc3c(s2)CCc2ccccc2-3)cc1,1.1
C=CCOC(=O)C1=C(C)NC(=O)NC1c1ccccc1Br (centres undefined),-0.61
CCCN1CNC(=S)N(c2ccccc2OC)C1,-0.5
COc1ccc(C=Nc2ccc3oc(-c4ccc(Br)cc4)nc3c2)cc1OC,0.26
CC(C)(C)c1ccc(C(=O)Nc2ncn[nH]2)cc1,-0.77
C[n+]1cc(-c2ccccc2)nc(N2CCOCC2)n1,-0.57
O=C(Nc1ccc(Cl)cc1)c1ccc(N2CC3CC(C2)c2cccc(=O)n2C3)c([N+](=O)[O-])c1 (centres undefined),-0.85
O=C1c2ccccc2C(=O)C1c1ccc(O)cc1,0.45
CC(C)(CNC(=O)C1c2ccccc2Oc2ccccc21)CNC(=O)C1c2ccccc2Oc2ccccc21,1
CCOc1ccc(NC(=O)C2CCN(S(=O)(=O)c3ccc(Br)cc3)CC2)cc1,0.88
COCCNc1ncnc2sc3c(c12)CCCC3,-0.72
CCN(CC)S(=O)(=O)c1cc(C(=O)Nc2nnc(-c3ccccc3)s2)ccc1C,0.64
COc1ccccc1CC(=O)Nc1ccc(-c2noc(-c3ccccc3OC)n2)cc1,-1.2
CCOC(=O)c1c(NC(=O)C23CC4CC(CC(C4)C2)C3)sc2c1CCC(C)C2 (centres undefined),0.07
CCCOc1ccc(C2NC(=O)NC(C)=C2C(=O)OCCc2ccccc2)cc1 (centres undefined),-0.43
O=C1CN(C(=O)c2ccccc2F)C(c2ccccc2)c2cc(F)ccc2N1 (centres undefined),-0.12
CCCN(CCC)c1ncnc2c1sc1nc3c(cc12)COC(C)(C)C3,-0.46
Cc1ccc(F)cc1N1C(=O)CSC1c1ccc(F)cc1 (centres undefined),-0.69
COc1ccc(-c2nc3ccccc3nc2-c2ccccc2)cc1,-2.3
O=C(c1cccc(Cl)c1)N1CCN(c2ccc([N+](=O)[O-])c(NC3CC3)c2)CC1,0.31
CCN(Cc1ccccc1)C(=O)Cn1c(=O)n(-c2ccc(Cl)cc2)c(=O)c2c(C)c(C)sc21,-0.11
O=S1(=O)CC(O)C(Nc2ccccc2O)C1 (centres undefined),-0.01
COC(=O)C1=C(C)Nc2nnnn2C1c1ccccc1Cl (centres undefined),-0.88
N#Cc1cc2c(nc1SCC(=O)N1CCOCC1)CCCCC2,-0.4
COc1cc(C2C3=C(CC(C)(C)CC3=O)Nc3ccc4ncccc4c32)ccc1OCc1ccccc1 (centres undefined),0.11

Some of the entries so far, with the structure last.
Measles inh,canonical_smiles
-0.01,O=S1(=O)CC(O)C(Nc2ccccc2O)C1 (centres undefined)
-0.11,CCN(Cc1ccccc1)C(=O)Cn1c(=O)n(-c2ccc(Cl)cc2)c(=O)c2c(C)c(C)sc21

Next section.
compound,Measles inh
CC12CC(NC(=O)N1c1cccc(C(=O)NCCc3ccc(S(N)(=O)=O)cc3)c1)c1ccccc1O2 (centres undefined),1.1
CC1=C(C(=O)Nc2cccc(C(F)(F)F)c2)C(c2ccc(C(C)(C)C)s2)C2=C(CC(C)(C)CC2=O)N1 (centres undefined),-0.48
O=C(O)CCSCc1ccc(Cl)cc1,-0.04
O=C1CC(C(=O)NC2CCCCC2)(c2ccccc2F)N1CCc1ccccc1 (centres undefined),-2.2
O=C(CCNS(=O)(=O)c1cccc2nsnc12)NCc1ccccc1Cl,-0.46
CSc1nc2c(oc3ccc(Cl)cc32)c(=O)n1CC1CCCO1 (centres undefined),0.06
COc1ccc(C2/C(=C(\O)c3ccc(Cl)cc3)C(=O)C(=O)N2CCNC(C)=O)cc1 (centres undefined),-0.38
O=[n+]1c2c(n([O-])c3ccccc31)CCC2,1.6
CCCCCNC(=O)c1c[nH]c2ccc(S(=O)(=O)N(C)c3cccc(C)c3)cc2c1=O,-0.87
O=C(Cc1ccc(F)cc1)Nc1c2c(nn1-c1cccc(Cl)c1)CS(=O)C2 (centres undefined),0.01
CCC(Sc1nnc(C)c(=O)[nH]1)C(=O)Nc1ccc(Cl)cn1 (centres undefined),-0.29
CCCCOc1ccc(S(=O)(=O)NC(C)c2ccccc2)cc1 (centres undefined),-0.33
CC1=C(C(=O)OC2CCCCC2)C(c2ccccc2OC(C)C)C2=C(CC(C)(C)CC2=O)N1 (centres undefined),-0.05
CCOC(=O)c1c(C)n(C)c2c1cc(OC(=O)C(C)(C)C)c1ccccc12,-0.49
CSC1CCCCC1(O)CSc1nc2c(cc1C#N)CCCC2 (centres undefined),0.3

Some values from the entries so far.
CCC(Sc1nnc(C)c(=O)[nH]1)C(=O)Nc1ccc(Cl)cn1 (centres undefined) @ Measles inh = -0.29
CCCCOc1ccc(S(=O)(=O)NC(C)c2ccccc2)cc1 (centres undefined) @ Measles inh = -0.33
CC1=C(C(=O)OC2CCCCC2)C(c2ccccc2OC(C)C)C2=C(CC(C)(C)CC2=O)N1 (centres undefined) @ Measles inh = -0.05
COc1ccc(C2/C(=C(\O)c3ccc(Cl)cc3)C(=O)C(=O)N2CCNC(C)=O)cc1 (centres undefined) @ Measles inh = -0.38

(further entries)
compound,Measles inh
COc1ccc(NC(=O)CN2CCN(Cc3ccccc3F)CC2)cc1,1.5
COC(=O)c1c(N)n(C(C)c2ccccc2)c2nc3ccccc3nc12 (centres undefined),-0.43
CCN(CC)c1nc2c(c(=O)[nH]c(=O)n2C)n1Cc1ccc(F)cc1,-0.35
Cc1cccnc1-n1c(CCN2C(=O)c3ccccc3C2=O)nc2ccccc2c1=O,0.81
COc1ccc(-c2cc(C(=O)NC(C)CCc3ccccc3)c3ccccc3n2)cc1 (centres undefined),-0.87
CCOC(=O)c1[nH]c(=O)[nH]c1COC(=O)c1ccco1,-0.09
CCOC(=O)c1c(C)n(C)c2ccc(OCC#N)cc12,0.68
Cc1c(C(=O)NCC2CCCO2)oc2ccc(S(=O)(=O)N3CCCCCC3)cc12 (centres undefined),-0.47
O=C(NCCCN1CCOCC1)c1ccc(F)cc1,0.1
CCCOC(=O)C1=C(C)NC2=C(C(=O)CC(c3cccs3)C2)C1c1ccc(Cl)cc1 (centres undefined),-0.07
O=C(Cn1c(=O)sc2ccccc21)N1CCCc2ccccc21,-1.7
Cc1ccc(NC(=O)CCCN2C(=O)c3cccnc3C2=O)c(Br)c1,2.4
O=C1CSC(c2cccc([N+](=O)[O-])c2)N1c1ccc(Oc2ccccc2)cc1 (centres undefined),-0.67
CC1CN(S(=O)(=O)c2ccc(C(=O)Nc3cccc(-c4nc5ccccc5[nH]4)c3)cc2)CC(C)O1 (centres undefined),-0.75
CCOC(=O)c1cc2c(=O)n3ccccc3nc2n(CCOC)c1=NC(=O)c1cc2ccccc2o1,-0.3
COc1cccc(OC)c1C(=O)Nc1ccc(C(=O)Oc2ccccc2)c(O)c1,1.6
CC1CCC(N2CC(=O)N(CCc3ccc(Cl)cc3)C(c3ccc(Cl)cc3)C2=O)CC1 (centres undefined),0.7
CCC1CCCCN1C(=O)c1cc(-c2cccs2)on1 (centres undefined),-0.57
COc1ccc(CNC(=O)C2C3C=CC4(CN(Cc5ccccc5Cl)C(=O)C24)O3)cc1 (centres undefined),1.7
O=C(Nc1ccc(F)cc1)Nc1cccnc1Cl,0.18
COC(=O)c1ccc(NC(=O)c2c(-c3ccccc3Cl)noc2C)cc1,0.09
COc1ccc(-c2nc3cc(C)ccc3o2)cc1N=Cc1cc(Br)cc(OC)c1O,-0.67
CCN1C(=O)c2ccc(S(=O)(=O)c3ccc(C(=O)O)cc3)cc2C1=O,0.23
COc1ccc(-c2cc(C(F)(F)F)n3nc(C(=O)Nc4cccc(C)c4C)cc3n2)cc1,-0.39
Cc1cc(Cl)nc(Cl)c1C(=O)O,0.44
O=[N+]([O-])c1ccc2nc(CSc3nc4ccccc4n3Cc3ccccc3)[nH]c2c1,-0.39
CCCCCNC(=O)c1c[nH]c2ccc(S(=O)(=O)N(C)c3ccc(Cl)cc3)cc2c1=O,-0.96
Cn1c(=O)cc(SCC(=O)NCc2ccccn2)c2ccc(Cl)cc21,1.5
COc1cc(NC(=O)C2CCCN(S(=O)(=O)c3c(C)n[nH]c3C)C2)cc(OC)c1 (centres undefined),0.87

Part of the list above in order of heavy-atom count, high to low.
compound,Measles inh
CCOc1ccc(NC(=O)C2CCN(S(=O)(=O)c3ccc(Br)cc3)CC2)cc1,0.88
C=CCOC(=O)C1=C(C)NC(=O)NC1c1ccccc1Br (centres undefined),-0.61
O=[n+]1c2c(n([O-])c3ccccc31)CCC2,1.6
